From PubChem
HSV replic up – increases HSV replication in cells; HSV replication augmentation in cells, fold increase; maximum fold increase; 0.005% of 220,000 active;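 active = peak rise of 1.5-fold or more in the series; tested in PC3 cells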;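 also: first round at 10 µM; read as green reporter fluorescence; hits show the peak of a series up to 25 µM; 1 = signal of infected wells without compound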
RGS16-Gao HTS – regulators of human RGS16-Galphao interaction. bead-based flow cytometry RGS16-Galphao binding, fluorescence; actives lie on both sides. binding response (% of control), % at 10 µM. 0.38% of 220,000 active;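 active = below 25% or above 175%, edge rows of some plates excepted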;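 also: Galphao activated by GDP with aluminum fluoride before binding; 100% = wells without compound and 0% = beads without RGS; some results beyond the cut were filed as inactive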
Target sequence (O15492 whole entry, looked up): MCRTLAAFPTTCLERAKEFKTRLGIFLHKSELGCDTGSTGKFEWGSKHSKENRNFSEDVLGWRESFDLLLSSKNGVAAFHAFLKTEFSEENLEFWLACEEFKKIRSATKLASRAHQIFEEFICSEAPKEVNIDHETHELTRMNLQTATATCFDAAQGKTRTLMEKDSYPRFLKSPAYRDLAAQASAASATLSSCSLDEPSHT
Target sequence (P09471 whole entry, looked up): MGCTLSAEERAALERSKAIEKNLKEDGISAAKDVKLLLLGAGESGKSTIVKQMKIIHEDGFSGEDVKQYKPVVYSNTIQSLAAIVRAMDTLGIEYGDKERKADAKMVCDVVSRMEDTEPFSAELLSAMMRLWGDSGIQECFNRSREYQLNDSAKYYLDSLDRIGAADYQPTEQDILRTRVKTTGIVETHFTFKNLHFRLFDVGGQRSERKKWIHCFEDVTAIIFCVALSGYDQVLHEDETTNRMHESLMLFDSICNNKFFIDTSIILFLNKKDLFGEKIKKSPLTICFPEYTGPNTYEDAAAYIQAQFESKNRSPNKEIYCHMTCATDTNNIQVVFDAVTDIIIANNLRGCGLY
Insulin prom inh – TRM-6 insulin promoter activity inhibition | TRM-6 cells (human fetal islet line), insulin promoter-eGFP reporter, imaging; reporter expression induced with tamoxifen | inhibition, % at 2 µM | 0.9% of 130,000 active;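 active = inhibition above the mean plus 3 SD, with well images judged a real hit on visual review, cut at about 60% in these data, passing the limit was not always enough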
GALR2 ag – GALR2 (human) receptor agonism; activation, %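 (tested at 5 µM)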; 0.48% of 140,000 active; GALR2-expressing cells, agonist activation read-out;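 active = above mean plus 3 SD of all compounds, about 5% in these data, not always enough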;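 also: 0% = vehicle buffer wells and 100% = reference agonist at full effect; tested in CHO reporter cells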
Target sequence (O43603 whole entry, looked up): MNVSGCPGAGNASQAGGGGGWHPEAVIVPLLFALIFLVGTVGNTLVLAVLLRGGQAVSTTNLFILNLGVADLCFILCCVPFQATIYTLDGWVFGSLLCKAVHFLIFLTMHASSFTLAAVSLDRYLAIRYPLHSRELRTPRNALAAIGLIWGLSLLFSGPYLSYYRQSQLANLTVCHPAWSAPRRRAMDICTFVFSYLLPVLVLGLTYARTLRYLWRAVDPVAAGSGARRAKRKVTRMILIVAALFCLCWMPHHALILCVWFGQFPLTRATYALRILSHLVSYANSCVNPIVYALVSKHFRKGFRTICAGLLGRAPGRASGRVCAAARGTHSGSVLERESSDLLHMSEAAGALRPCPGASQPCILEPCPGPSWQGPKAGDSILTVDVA
PKD1 inh – inhibitors of human PKD1 kinase | 0.056% of 200,000 active | inhibition, %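 (about 10 µM by stock and volumes)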 | AID 797 | PKD1 kinase fluorescence polarization assay | Q15139;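 active = inhibition of 50% or more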;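 also: controls were vehicle for no effect and a reference inhibitor for full effect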
Insulin prom inh cell count – further read-out of Insulin prom inh, marked with its call; normalized cell count, %; measured here: cell count, toxicity; reference of the scale not given here;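 cells exposed to compound for 48 h; stained nuclei by imaging scaled within each plate; lower means fewer cells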
HSV replic up primary fold – also measured in HSV replic up; calls as there; fold increase; compound at 10 µM; measured here: primary screen fold increase 10 uM; tested in PC3 cells;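 GFP signal in the first replicate; 1 = infected wells without compound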
Starred values were filed as active, the others as inactive; i = inactive; . = not tested or not shown; & = joins results of further samples.

#	canonical_smiles	Insulin prom inh cell count	HSV replic up	GALR2 ag	Insulin prom inh	HSV replic up primary fold	RGS16-Gao HTS	PKD1 inh
1	COc1ccc(/C=N/Nc2nc(-c3cccc(S(=O)(=O)N4CCCC4)c3)cs2)cc1OC	146	i	-0.5	57	0.77	106	-1
2	Cc1cc(NCc2ccccc2)nc(-c2ccccc2O)n1	.	i	-3.1	.	0.81	94	-4
3	Cc1ccc(CN2CCN(/N=C/C=C/c3ccccc3[N+](=O)[O-])CC2)cc1	.	i	.	.	0.9	104	-4
4	CS(=O)c1ccccc1COC(=O)Nc1cccc(Cl)c1 (centres undefined)	.	i	-0.9	.	0.86	99	3
5	O=C(CCc1ccccc1)NC(c1cccs1)c1cc(Cl)c2cccnc2c1O (centres undefined)	36	i	.	-115	0.82	101	4
6	COc1ccccc1Nc1nnc(Cc2ccccc2)c(=O)[nH]1	90	i	.	27	0.98	101	-1
7	CC(=O)Nc1ccc(S(=O)(=O)NCC(=O)OCC(=O)NC(=O)c2cccn2C)cc1	.	i	.	.	1	104	.
8	Cc1ccc(NC(=O)COC(=O)c2cccc3c(=O)c(C)c(-c4ccccc4)oc23)cc1	100	i	1.3	38	0.9	101	-7
9	CCOC(=O)COc1ccc([N+](=O)[O-])cc1	87	i	-0.9	16	1.1	103	-4
10	COc1ccccc1C(=O)Nc1ccc2c3c(cccc13)CC2	201	i	-2.1	-31	0.84	62	-13
11	O=C(/C=C/c1cccc(F)c1)N1CCN(c2ncccn2)CC1	202	i	.	67	0.97	102	-5
12	CN1CCN(Cc2nc3ccccc3c(=O)n2Cc2nc(-c3ccc([N+](=O)[O-])cc3)cs2)CC1	.	i	1.0	.	0.85	105	-3
13	N#C/C(=C\c1ccccc1C(F)(F)F)C(=O)Nc1ccccc1F	78	i	-0.4	13	0.94	100	-12
14	Cc1ccc(S(=O)(=O)Cn2nnnc2C(CC(C)C)N2CCN(c3ccccc3)CC2)cc1 (centres undefined)	27	i	-0.5	i	1	103	-4
15	Nc1ncnc2c1ncn2CCNCCc1ccccc1	216	i	-4.7	-3	0.9	103	-5
16	COCC(C)NC(=O)/C(=C/c1ccccc1)c1ccccc1 (centres undefined)	.	i	.	.	0.97	93	1
17	CCOc1nc(C)ccc1-c1noc(-c2ccco2)n1	32	i	-2.8	-263	1	90	14
18	CCOc1ccc(Br)cc1CNc1ccc2c(c1)OCCO2	.	i	.	.	1	98	-6
19	Cc1onc(-c2ccccc2Cl)c1C(=O)NC(=S)Nc1ccccc1C(N)=O	127	i	-0.3	11	0.92	103	-6
20	COc1ccc(CC(NC(C)=O)C(=O)NC2CCN(c3c(Cc4ccccc4)c(C)nc4ncnn34)CC2)c(OC)c1 (centres undefined)	89	i	.	0	0.95	99	-1
21	COc1ccc(N=Cc2c(O)[nH]c3ccccc23)cc1	178	i	-2.1	-16	1	100	19
22	Cn1c(N)c(C(=O)COC(=O)CCCc2c[nH]c3ccccc23)c(=O)n(C)c1=O	.	i	-1.7	.	1	98	-3
23	Cc1ccccc1Nc1scc(-c2ccc(Br)cc2)[n+]1-c1ccccc1C	115	i	.	-19	1.1	107	-8
24	CCNC(=O)COn1c(SCC(=O)NCC)nc2ccccc2c1=O	.	i	0.4	.	1	98	5
25	Cn1c2ccccc2c(=O)c2c(=O)n(Cc3ccco3)c(-c3ccc(F)cc3)nc21	.	i	.	.	0.99	102	.
26	COc1ccc(-c2csc(NC(=O)COc3ccc(N(C)S(=O)(=O)c4ccc(C)cc4)cc3)n2)cc1	141	i	-0.3	-22	1	101	-12
27	Cc1ccccc1C1=NC(C(F)(F)F)(C(F)(F)F)c2c(n(C)c(=O)n(C)c2=O)N1	83	i	0.6	9	0.84	104	-11
28	N/C(=N\N=C\c1ccc2c(c1)OCO2)c1nonc1N	205	i	-1.3	-27	0.99	107	-8
29	O=C(c1ccc2nc(-c3ccco3)c(-c3ccco3)nc2c1)N1CCN(c2ncccn2)CC1	107	i	-0.4	3	0.95	76	-4
30	Cc1nc2ncnn2c(C)c1CCC(=O)NCCC1=CCCCC1	106	i	-0.2	-10	0.99	79	-1
31	FC(F)(F)c1cc(C(F)(F)F)c2ccc(N3CCN(c4ccc(Cl)cc4)CC3)nc2n1	110	i	-1.5	18	0.66	111	7
32	CC(C)c1nc(-c2c(N)n(C)c(=O)n(C)c2=O)sc1C(=O)C(C)(C)C	82	i	-1.6	-116	0.91	97	3
33	C=CCN(CC=C)C(=S)Nc1ccccc1	.	i	-2.9	.	0.92	100	-2
34	Cc1c(NC(=O)/C(C#N)=C/c2ccc(-c3ccc(Cl)c(Cl)c3)o2)c(=O)n(-c2ccccc2)n1C	60	i	-2.9	-3	1.1	100	7
35	CN1CCCC(OC(=O)c2cccc(S(=O)(=O)N3CCCCCC3)c2)C1 (centres undefined)	.	i	.	.	0.97	97	.
36	C=CCn1c(SCc2c(C)noc2C)nc2sc(C)c(C)c2c1=O	123	i	1.6	13	0.76	102	-7
37	Cc1nonc1N1CCN(Cc2cn[nH]c2-c2ccc(F)cc2F)CC1	116	i	.	-27	1	114	-2
38	O=C(N/N=C/c1ccc([N+](=O)[O-])cc1)c1ccc2nc[nH]c2c1	108	i	-0.1	21	0.84	97	3
39	COc1ccc(C2(C(=O)NCC3CCCO3)CCOCC2)cc1 (centres undefined)	78	i	-2.6	39	1	101	1
40	COc1cc(CNc2ccc(CNc3ncn[nH]3)cc2)ccc1OCC(=O)NC(C)(C)C	85	i	-0.3	15	0.88	124	6
41	COc1ccc(NC2=C(C(C)=O)C(c3ccc(OC)cc3)C(C(C)=O)C(C)(O)C2)cc1 (centres undefined)	107	i	.	-317	0.97	103	-1
42	O=C(NC(NNc1ccc([N+](=O)[O-])cc1)(C(F)(F)F)C(F)(F)F)c1ccc(Cl)cc1	141	i	-2.5	0	0.96	103	-9
43	COC(=O)C1SCC2C(=O)N(Cc3ccc(F)cc3)CC(=O)N21 (centres undefined)	.	i	.	.	0.87	98	-4
44	CC(=O)N1c2c(cc(Br)cc2S(=O)(=O)NCC2COc3ccccc3O2)CC1C (centres undefined)	75	i	0.2	0	0.96	102	8
45	CCCCCCC(=O)NCC(=O)OCC(=O)c1ccccc1	116	i	-0.6	-16	0.86	99	-5
46	CCN(CC)S(=O)(=O)c1cccc(-c2nnc(SC(C)C(=O)NCCC3=CCCCC3)o2)c1 (centres undefined)	137	i	1.0	-56	0.95	98&104	-2
47	CN1C=CC(=C2C(=O)c3ccccc3C2=O)C=C1	124	i	-0.2	27	0.89	105	-3
48	O=C1NCCN(Cc2ccc(-c3ccccc3)cc2)C1CC(=O)N1CCN(CCO)CC1 (centres undefined)	.	i	.	.	1.1	111	2
49	CC1CCCN(c2ccc(C(=O)Nc3ccc4c(c3)OCO4)cc2[N+](=O)[O-])C1 (centres undefined)	116	i	-0.7	7	0.78	109	4
50	CC(NC(=O)OC(C)(C)C)C(=O)NC(CCC(=O)OCc1ccccc1)C(N)=O (centres undefined)	102	i	.	-25	0.96	98	-2
51	O=C(NCC1COc2ccccc2O1)c1ccc(NC(=O)C2CCCO2)cc1 (centres undefined)	.	i	-0.2	.	0.91	110	4
52	O=C(COC(=O)C1CCCCC1)Nc1ccc(S(=O)(=O)N2CCOCC2)cc1	103	i	.	25	0.92	106	-1
53	Cn1cccc1/C=N/NC(=O)c1ccncc1	.	i	.	.	0.99	102	.
54	O=C(CN1C(=O)C(=O)N(Cc2ccccc2)C1=O)Nc1cc(Cl)cc(Cl)c1	.	i	.	.	0.82	96	.
55	COc1cccc(-c2noc(C3CCCN(C(=O)Cc4ccccc4)C3)n2)c1 (centres undefined)	109	i	-0.5	50	1	102	-3
56	CCOC(=O)C1=C(c2ccccc2)NC(=S)NC1c1ccc(C)c([N+](=O)[O-])c1 (centres undefined)	86	i	0.3	-6	0.91	101	7
57	C=C(C)CN1C(=O)C(=O)N(CC(=C)C)C1=O	.	i	.	.	0.92	99	.
58	CSC1=NNC(c2ccc(C(C)(C)C)cc2)=NN1	.	i	.	.	0.92	101	.
59	Cc1cc(=O)[nH]c(SCc2cccc3cccnc23)n1	.	i	.	.	0.97	101	-4
60	NC(=O)NC(=O)COC(=O)CNS(=O)(=O)c1ccc(F)c(F)c1F	.	i	.	.	1.1	99	.

Next part:
#	canonical_smiles	Insulin prom inh cell count	HSV replic up	GALR2 ag	Insulin prom inh	HSV replic up primary fold	RGS16-Gao HTS	PKD1 inh
61	CC(=O)n1cc(N(C(=O)CCl)c2ccc(C)cc2)c2ccccc21	.	i	.	.	0.59	102	.
62	CC(C)=C1C2CCC1C1C(=O)N(c3nc(-c4ccc(C(C)C)cc4)c(C)s3)C(=O)C21 (centres undefined)	.	i	-0.6	.	0.97	100	-2
63	COCCCNC(=O)CN(c1cccc(Cl)c1)S(C)(=O)=O	.	i	-1.7	.	0.98	97	-1
64	O=c1c2c(-c3ccc([N+](=O)[O-])cc3)csc2nc2n1CCCCC2	115	i	.	-15	0.79	101	-15
65	CCOC(=O)C1(Cc2ccccc2Cl)CCN(C(=O)CCn2ccnc2C)CC1	69	i	.	-57	0.97	106	-2
66	Cn1c(CSCc2ccc(F)cc2)nnc1SCC(=O)N1CCN(c2ccccc2)CC1	.	i	-1.3	.	0.9	104	-2
67	O=C(Nc1nc2ccsc2c(=O)s1)c1ccc(F)cc1Cl	.	i	.	.	1.1	98	.
68	Cc1ccc2[nH]c3c(NCCN4CCOCC4)ncnc3c2c1	70	.	-1.5	28	.	92	-10
69	CCn1c2ccccc2c(=O)c2ccccc21	70	i	.	29	0.93	101	42
70	CC(C)[C@H](NC(=O)c1ccco1)C(=O)OCC(=O)NC12CC3CC(CC(C3)C1)C2	132	i	.	-95	0.92	110	2
71	O=C(CN1c2cccc3cccc(c23)S1(=O)=O)Nc1cccc(S(=O)(=O)N2CCOCC2)c1	122	i	0.8	-32	0.94	102	-1
72	COc1ccc(C(=O)NCC(=O)OCC(=O)Nc2ccc(C)c(S(=O)(=O)N(C)C)c2)cc1OC	.	i	.	.	0.75	87	.
73	COc1ccnc(N=CNOCc2ccc(F)cc2Cl)c1C#N	94	i	-1.2	57	0.84	100	-2
74	COC(=O)c1ccc(OC(=O)c2ccccc2F)cc1	103	i	-0.7	19	0.82	107	-2
75	Cn1nc(-c2ccc(OCC(=O)Nc3cccnc3)cc2)c2ccccc2c1=O	79	i	-0.9	28	0.94	76	6
76	CCOC(=O)C1CCN(Cc2nc3ccccc3c(=O)n2-c2ccc(OCC)cc2)CC1	89	i	0.0	-105	1	99	-7
77	CN1CCN(/N=C/c2nc(-c3cccc([N+](=O)[O-])c3)n3ccccc23)CC1	.	i	0.3	.	0.84	103	6
78	Cc1ccc(C(=O)CSc2nnc(-c3ccco3)n2CC2CCCO2)cc1 (centres undefined)	201	i	-2.1	14	1.1	101	-2
79	CC1CC(CN)CC(CO)C1 (centres undefined)	.	i	.	.	1	100	0
80	COc1ccccc1NC(=O)c1ccccc1NS(=O)(=O)N1CCCC1	.	i	-2.5	.	0.66	98	-5
81	Cc1sc2ncnc(SC(C)C(=O)N3c4ccccc4Sc4ccccc43)c2c1C (centres undefined)	.	i	-0.1	.	0.92	97	-3
82	O=C(C1CCCN(S(=O)(=O)c2cccc3nonc23)C1)N1CCC(Cc2ccccc2)CC1 (centres undefined)	222	i	-2.7	-41	0.98	100	-9
83	O=C(NNC(=O)c1cnccn1)c1ccc(Cl)cc1	.	i	.	.	0.95	97	.
84	Cc1csc2ncc(C(=O)NCCc3ccccc3)c(=O)n12	.	i	-1.6	.	0.95	99	-6

Reformatted with two lines to a compound: entries from further up
Values in the order – Insulin prom inh cell count	HSV replic up	GALR2 ag	Insulin prom inh	HSV replic up primary fold	RGS16-Gao HTS	PKD1 inh
(77) CN1CCN(/N=C/c2nc(-c3cccc([N+](=O)[O-])c3)n3ccccc23)CC1
 : .	i	0.3	.	0.84	103	6
(84) Cc1csc2ncc(C(=O)NCCc3ccccc3)c(=O)n12
 : .	i	-1.6	.	0.95	99	-6
(82) O=C(C1CCCN(S(=O)(=O)c2cccc3nonc23)C1)N1CCC(Cc2ccccc2)CC1 (centres undefined)
 : 222	i	-2.7	-41	0.98	100	-9
(76) CCOC(=O)C1CCN(Cc2nc3ccccc3c(=O)n2-c2ccc(OCC)cc2)CC1
 : 89	i	0.0	-105	1	99	-7

Next part
#	canonical_smiles	Insulin prom inh cell count	HSV replic up	GALR2 ag	Insulin prom inh	HSV replic up primary fold	RGS16-Gao HTS	PKD1 inh
85	O=C(N/N=C/c1ccc(Br)s1)c1ccccn1	86	i	-2.8	20	0.93	100	1
86	CC12CN(C(=O)c3ccccc3)C3(C#N)CC1CCC23C (centres undefined)	82	i	-0.4	-23	0.87	98	2
87	CCCCn1c(SCc2cc(=O)[nH]c3ccccc23)nc2c1c(=O)n(C)c(=O)n2C	.	i	-0.8	.	0.83	104	0
88	CCc1nc(SCC(=O)NCc2ccco2)c2c(=O)n(C)c(=O)n(C)c2n1	.	i	-0.9	.	0.87	105	-12
